Screens: PubChem, National Center for Advancing Translational Sciences (NCATS)
VACV Venus inh = inhibitors of vaccinia virus (Venus reporter); Vaccinia virus Venus reporter expression, fluorescence; hit rate 0.46% among 330,000; Potency, µM (doses to about 36.5 µM), inactives show top-dose activity change, negative = inhibition, most hits filed as inhibitors; active means well fitted inhibition curve with a large enough effect; inconclusive means small, poorly fitted or top-dose-only effect; inactive means no such curve, though single readings can be large or run the other way; tested in A549 cells; also: nearly all actives have a fitted effect of over 30% in size; inactives centre near -10
VACV mCherry inh = inhibitors of vaccinia virus infection (mCherry reporter signal) | hit rate 0.63% among 310,000 | Potency, µM (series often up to 36.5 µM), for the others: top-dose activity change, negative = inhibition, hits mostly inhibitors | Vaccinia virus mCherry reporter infection, fluorescence; about a quarter of the inactives have no number | AID 720579; active = well fitted inhibition curve with a large enough effect; inconclusive = small, poorly fitted or top-dose-only effect; inactive = no such curve, though single readings can be large or run the other way; tested in A549 cells; also: nearly all actives have a fitted effect of over 35% in size; inactives centre near -10
Starred values were filed as active, the others as inactive; i = inactive; ? = inconclusive; · = no result given; [ ] = dose if it differs, or a comment. % is scaled to controls: 0 for no effect and ±100 for the full control effect; potency is read from the fitted curve at half-maximal effect.

Values run as follows: VACV Venus inh, VACV mCherry inh
CN(C)c1ccc(P(=O)(Nc2ccc([N+](=O)[O-])cc2)N2CCOCC2)c(NC(=O)c2cccs2)c1 (centres undefined)
    -6%, -6%
O=c1[nH]c(=S)ccn1C1OC(CO)C(O)C1O (centres undefined)
    -4%, -7%
CCCCN(C)CCNC(=O)c1cc2c(-c3cccc(OC)c3)nn(C)c2s1
    -20%, -25%
O=C(c1cccs1)N1CCN=C1SCc1cccnc1
    -16%, -18%
COC(=O)c1nnn(-c2nc(N3CCOCC3)nc(N3CCOCC3)n2)c1C
    -3%, i
Cc1ccc(Nc2cc(=O)[nH]c(=O)[nH]2)cc1C
    -6%, -10%
CC(C)c1ccc(NC(=O)CN2C(=O)C3(SCC(=O)N3c3ccc(F)cc3)c3ccccc32)cc1 (centres undefined)
    ?, -28%
CC(C)c1onc(C(=O)NCCc2ccccc2)c1[N+](=O)[O-]
    0%, i
O=C(CSc1ccccn1)N1CCN(C(=O)CSc2ccccn2)CC1
    -14%, ·
CCN(CC)C(=O)c1[nH]cnc1C(=O)Nc1ccccc1
    -10%, -11%
CCOC(=O)c1cnc(-c2ccccc2)nc1Oc1cccc(Cl)c1
    -17%, ·
CCOc1ccc(/C=N/N2CCN(Cc3ccccc3)CC2)cc1
    -11%, -23%
Cc1cc(=O)oc2cc(OCC(=O)OCC(=O)Nc3ccccc3Br)ccc12
    -8%, -12%
O=C(COC(=O)c1ccc(S(=O)(=O)N2CCOCC2)cc1)NC1CCCCCC1
    3%, -10%
COc1ccc(C(C(=O)NC2CCCCC2)N(C(=O)CCl)c2ccc(Cl)cc2)cc1 (centres undefined)
    -26%, -10%
CCNS(=O)(=O)c1ccc(CCC(=O)O)cc1
    -8%, i
Cc1cnc(NC(=O)CN(C)S(=O)(=O)c2ccc(Cl)cc2)s1
    -10%, -8%
CC(=O)Nc1c(C(=O)O)oc2ccc(Cl)cc12
    -9%, -20%
O=C(Nc1nc2ccccc2[nH]1)c1cccc(Br)c1
    0%, i
COc1ccc2c(=O)cc(C(F)(F)C(F)(F)F)oc2c1
    -1%, -15%
O=C(c1ccc(N2CCOCC2)c([N+](=O)[O-])c1)N1CCCCC1
    -7%, -20%
CC1(C(=O)NS(=O)(=O)c2cccs2)CCN1C(=O)C1CCCCC1 (centres undefined)
    10%, -13%
CC[C@]12c3[nH]c4cc(CCC(=O)N(C)C)ccc4c3CCN1C(=O)[C@@H](CC(=O)NC(C)(C)C)C[C@@H]2C(=O)N1CCN(C(=O)c2ccco2)CC1
    -2%, -2%
COc1cc2c(cc1OC)CN(Cc1nc3ccsc3c(=O)[nH]1)CC2
    -8%, i
Cc1cccc(NCc2ccccc2O)c1
    -10%, ·
CN1CCN(CCCNCc2cn(CCC#N)c3ccccc23)CC1
    -9%, i
CCCCCCCCN1C(=O)[C@H](CC(=O)N2CCSCC2)C[C@@]2(C(=O)OCC)CCCC=C12
    -20%, -12%
O=C(C[C@@H]1C/C=C\C[C@@H](Cc2ccc(F)cc2)C(=O)OC[C@@H]2CCCN2C1=O)N[C@H](CO)Cc1ccccc1
    ?, ?
COc1ccc2c(c1)-c1nc(NC(=O)c3ccc(C)cc3)sc1CC2
    -8%, -13%
CS(=O)(=O)N(CC(=O)N1CCCCCC1)c1ccccc1
    -12%, i

3 of the compounds above, with bars between the fields:
smiles | VACV Venus inh | VACV mCherry inh
O=C(CSc1ccccn1)N1CCN(C(=O)CSc2ccccn2)CC1 | -14% | ·
CCN(CC)C(=O)c1[nH]cnc1C(=O)Nc1ccccc1 | -10% | -11%
CCOC(=O)c1cnc(-c2ccccc2)nc1Oc1cccc(Cl)c1 | -17% | ·

Back to the main list; the two compounds before the break are reprinted first.
Values run as follows: VACV Venus inh, VACV mCherry inh
COc1ccc2c(c1)-c1nc(NC(=O)c3ccc(C)cc3)sc1CC2
    -8%, -13%
CS(=O)(=O)N(CC(=O)N1CCCCCC1)c1ccccc1
    -12%, i
Cc1ccccc1NS(=O)(=O)c1ccc(NC(=O)N2CCCCC2)cc1
    -17%, -4%
CN(C)CCCNC(=O)c1cc2sc3ccccc3c2s1
    -13%, -28%
NC(=O)c1ccc(N2CCCCC2)c(N2C(=O)C3C4C=CC(C4)C3C2=O)c1 (centres undefined)
    -27%, ·
O=C(NNC(=O)c1ccc(S(=O)(=O)N2CCCC2)cc1)c1ccc(Br)cc1
    -12%, -17%
COc1cc(/C=C2/NC(=O)N(Cc3ccccc3F)C2=O)cc(OC)c1O
    -1%, 5µM*
COc1cc(CNc2ncnc3c2ncn3[C@H]2CN(Cc3ccc(F)cc3)C[C@@H](CO)O2)cc(OC)c1OC
    8%, -5%
CN(CC(=O)OCC(=O)NCC(F)(F)F)S(=O)(=O)c1ccc(Cl)cc1
    -7%, i
Cc1ccc(S(=O)(=O)N2CCCCC2)cc1NC(=O)CCNC(=O)c1ccccc1Cl
    -15%, -6%
CCN(C(=O)COC(=O)CN(C)S(=O)(=O)c1ccc(NC(C)=O)cc1)C1CCS(=O)(=O)C1 (centres undefined)
    -7%, i
OCc1cccc(Nc2ncnc3sc4c(c23)CCCCC4)c1
    -12%, -2%
COc1cc([N+](=O)[O-])ccc1NC(=O)CSc1nnc(C)c(C)n1
    -3%, i
CC(C)(C)OC(=O)NCCCC[C@H](NC(=O)c1nc[nH]c1C(=O)NC(c1ccccc1)c1ccccc1)C(=O)OC(C)(C)C
    ?, -17%
CCN1CCCC1CNCc1cccc(OC)c1OCc1ccccc1 (centres undefined)
    -17%, -20%
CN1CCC(N(C)S(=O)(=O)c2ccc(NC(=O)COc3ccc([N+](=O)[O-])cc3)cc2)CC1
    -24%, -20%
O=C(COC(=O)c1ccc(Br)cc1)NCCC1=CCCCC1
    5%, -9%
O=C(Nc1nc2ccccc2s1)c1cccn(Cc2ccccc2)c1=O
    -21%, -3%
CCN(CC)S(=O)(=O)c1ccc(-c2nnc(SCC(N)=O)n2CC)cc1
    -4%, i
O=C(NC(=S)N1CCCCCC1)c1ccc(Cl)cc1Cl
    -26%, -26%
O=C(CSc1ncccn1)N1CCN(S(=O)(=O)c2ccccc2)CC1
    -16%, i
Cc1cc(C)c2cc(C(O)c3nnnn3Cc3ccccc3)c(=O)[nH]c2c1 (centres undefined)
    -15%, -17%
Cc1cccc(C(O)c2ncc(-c3ccccc3Cl)[nH]2)c1C (centres undefined)
    ?, ?
COc1ccc(CNC(=O)CSc2ncc3c(n2)-c2cc(Cl)ccc2N(C)S3(=O)=O)cc1
    -5%, -14%
Cc1ccc(Cn2c(C(=O)O)cc3sccc32)cc1
    -23%, -25%
COCC(=O)n1nc(NCc2ccc(OC)cc2)nc1NCc1ccc(OC)cc1
    -13%, -20%
Cc1cc(C)cc(NC(=O)c2cc(=O)c3ccccc3o2)c1
    -4%, -4%
CCN(CC)S(=O)(=O)c1cc(-c2nnc(-c3ccc(Br)cc3)o2)ccc1Br
    -8%, ·
COc1ccc(C(CNC(=O)c2cccc(S(=O)(=O)Nc3ccc(F)cc3)c2)N2CCCC2)cc1 (centres undefined)
    -16%, -25%
Fc1cccc(Cl)c1Cc1noc(/C=C/c2ccccc2)n1
    -7%, -6%
COc1ccc(N2C(=O)CC(Sc3nc(C)cc(C)c3C#N)C2=O)cc1 (centres undefined)
    -5%, i
Cn1c(=O)c(C(=O)c2ccccc2)c(O)c2ccccc21
    -10%[7.34 µM], i[7.34 µM]

Four entries out of the list, ordered by SMILES length, lowest first:
Values run as follows: VACV Venus inh, VACV mCherry inh
CN(C)CCCNC(=O)c1cc2sc3ccccc3c2s1
    -13%, -28%
Cc1cc(C)cc(NC(=O)c2cc(=O)c3ccccc3o2)c1
    -4%, -4%
CC1(C(=O)NS(=O)(=O)c2cccs2)CCN1C(=O)C1CCCCC1 (centres undefined)
    10%, -13%
COC(=O)c1nnn(-c2nc(N3CCOCC3)nc(N3CCOCC3)n2)c1C
    -3%, i

Following part:
Values run as follows: VACV Venus inh, VACV mCherry inh
O=CNC1(c2ccccc2)CCCCC1
    -20%, i
CCCS(=O)(=O)c1nc(S(=O)(=O)c2ccc(C)cc2)c(NCCCn2ccnc2)s1
    -11%, -19%
CC(C)NC(=O)COC(=O)c1ccc(Cl)c(S(N)(=O)=O)c1
    -14%, -8%
COc1ccc(Cc2nnc(NC(=O)c3cccs3)s2)cc1
    -12%, ·
CCn1cc(Cl)c(C(=O)Nc2ccc(OC)c(OC)c2)n1
    -16%, i
Cc1cc(NC(=O)COC(=O)C2COc3ccccc3O2)no1 (centres undefined)
    -6%, -13%
CC1C(=O)N(Cc2cn(Cc3ccco3)nn2)CCS(=O)(=O)N1Cc1ccc(-c2ccc(Cl)cc2)cc1 (centres undefined)
    -28%, -2%
Cc1c(NC(=O)c2ccc(Br)s2)c(=O)n(-c2ccccc2)n1C
    -7%, -11%
O=C(CN1Cc2ccccc2OC(c2ccccc2)C1)NCc1cccnc1 (centres undefined)
    -5%, -11%
CN(C)Cc1c(C(C)(C)O)[nH]c2ccc(C(F)(F)F)cc12
    -5%, -1%
CC(C)Oc1cc(F)ccc1-c1cc(C(=O)NCCc2ccncc2)[nH]n1
    -16%, i
COc1cccc(NC(=O)CN(C)C(=O)/C=C/c2cc(OC)ccc2OC)c1
    -14%, -17%
CCNC(=O)N(C)[C@H]1C[C@H]2c3[nH]c4ccccc4c3CCN2C[C@H]1[C@H](C)O
    -4%, 2%
COc1ccc(OC)c(Nc2c3ccccc3nc3ccccc23)c1
    ?, ?
CCOC(=O)c1c(C)[nH]c(C(=O)CSc2nc(C)cc(C)n2)c1C
    -20%, i
CC[C@]12c3[nH]c4ccc(Cl)cc4c3CCN1C(=O)[C@@H](CC(=O)NCCCn1ccnc1)C[C@@H]2C(=O)N1CCN(C(=O)C2CC2)CC1
    -11%, -12%
COc1ccc(Nc2ccc(S(=O)(=O)N3CCCCCC3)cc2[N+](=O)[O-])cc1
    -12%, -10%
COC(=O)CC1=C(c2ccc([N+](=O)[O-])cc2)CCC1=O
    4%, i
CC(C)C(C)(C#N)NC(=O)CN1C(=O)NC2(CCCc3ccccc32)C1=O (centres undefined)
    -9%, i
COc1cc(C(=O)NNc2nc3cc4c(cc3s2)OCO4)cc(OC)c1OC
    4%, ?
CCOC(=O)CSc1ccc(S(=O)(=O)N(C)C2CCCCC2)cc1[N+](=O)[O-]
    -9%, -5%
CCOCC(=O)Nc1ccccc1C(=O)N1CCOCC1
    -12%, -6%
CC(=O)Nc1ccc(NC(=O)C2Cc3c(-c4cccc(C(C)=O)c4)ccnc3O2)cc1 (centres undefined)
    -6%, 8%
CCCCC(=O)Nc1ccc2c3c(cccc13)CC2
    -9%, -7%
CCOc1cc(CNCc2ccccn2)cc(Cl)c1OCC
    -13%, i
N#C/C(=C/c1ccc(-c2ccc([N+](=O)[O-])cc2)o1)c1nnc(N2CCOCC2)n1-c1ccccc1
    13%, i
O=C(O)c1ccccc1/C=N/NC(=S)NC1CCCCC1
    -3%[7.34 µM], -1%[7.34 µM]
Cc1ccc(CC2S/C(=N/c3ccccn3)NC2=O)cc1 (centres undefined)
    -11%, ·
CC(C)Cc1nc(SCc2cccnc2)c2c(=O)n(C)c(=O)n(C)c2n1
    -24%, i
O=C(Cn1cnc2ccccc2c1=O)NCc1ccco1
    -5%, -8%
COc1ccccc1-c1cc(C(=O)N/N=C/c2cccs2)c2ccccc2n1
    -2%, ?
CCN(CC(=O)Nc1cc(Cl)ccc1C)C(=O)C1CC1
    -12%, i
CC(=O)ON(C(C)=O)c1ccc(/C=C2\C=Cc3ccccc32)cc1
    -6%, -13%
CCn1cc(SCC(=O)N2CCc3ccccc32)c2ccccc21
    -13%, ?
CN(C)S(=O)(=O)c1cccc(NC(=O)CSc2cccc3cccnc23)c1
    ?, ?
C/C(=N\Nc1ccccc1[N+](=O)[O-])c1ccc(N2CCOCC2)cc1
    3%, i
CSc1ncccc1C(=O)NCC1Cc2cc(-c3cnccn3)ccc2O1 (centres undefined)
    7%, -2%
Cc1ccc(S(=O)(=O)N(CC(=O)Nc2cccc([N+](=O)[O-])c2)C(=O)N2CCN(C)CC2)cc1
    -13%, i
COC(=O)C[C@@H]1OC[C@H](C(C)C)N1S(=O)(=O)c1ccc(C)cc1
    -4%, -15%
O=C(CS(=O)(=O)c1ccccc1)Nc1ncc([N+](=O)[O-])s1
    -13%, -12%
COc1ccc(NC(=O)c2c(NCc3cccc(OC)c3)sc3c2CCCC3)cc1
    -13%, -23%
O=C(O)C1CCCCC1C(=O)Nc1nc(-c2cccs2)cs1 (centres undefined)
    -8%, ·
Cc1ccc(C)c(N2CN(Cc3ccco3)CNC2=S)c1
    -11%, -8%
COc1ccccc1OCCCC(=O)NCc1ccco1
    -11%, 4%
Cc1ccc(-c2nnc(OCC3CCCO3)c3ccccc23)cc1 (centres undefined)
    -28%, -25%
O=S(=O)(Cc1ccccc1)N1CCN(c2ccccc2)CC1
    -7%, 2%
COc1ccc(CN(Cc2ccccc2)C(=O)c2ccno2)cc1COc1ccc(NC(C)=O)cc1
    -8%, i
Cc1c(-c2nc(-c3ccc(C(C)(C)C)cc3)no2)n(C)oc1=O
    -20%, -3%
